Assay outcomes: PubChem, Broad Institute
A1 inh = inhibitors of A1. 0.51% of 21,000 active. AID 2241. caspase activation, % (no concentration beside the values). MEF A1-2A-BIM cells, caspase-Glo luminescence, 3 h; percent of clofoctol signal, DMSO as zero;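 active = most replicate scores above 10, or exactly half above 10 with mean activity above 10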;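 note: effector caspase 3 and 7 activity cleaving a DEVD luciferin substrate; 50 nL library stock added to about 30 µL; numbers are from one replicate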
BJeLR viability = lowers viability of BJeLR cells; BJeLR fibroblasts viability, CellTiterGlo ATP luminescence, 48 h; HRASV12, hTERT and SV40 LT/ST transformed; viability loss activity score, % (no concentration beside the values); 0.64% of 30,000 active; in the data active = viability loss activity score above about 50%; about a fifth of its hits are not listed in these tables;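 note: higher score means fewer live cells and less ATP luminescence; stock transfer was 50 or 100 nL into about 30 µL; 0% = vehicle wells and 100% = a reference killing control; one replicate is shown; the record names a cut of 85%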
Numbers without * were called inactive; nt = not tested or not shown. An excerpt, so the mix of outcomes need not match the whole.

SMILES	A1 inh	BJeLR viability
C[C@H]1CN([C@@H](C)CO)C(=O)c2cc(NS(=O)(=O)c3ccc(F)cc3)ccc2O[C@H]1CN(C)Cc1ccncc1	0.8	-3.1
CN(CC(=O)N1CC=C(c2ccccc2)CC1)S(=O)(=O)c1ccc2nc(-c3ccccc3)[nH]c2c1	-0.9	-0.6
CCN(CC)CCNc1nc(-c2ccco2)c2c(c1C#N)CC(C)(C)OC2	nt	2.6
C[C@@H]1CN([C@H](C)CO)C(=O)c2cccc(NC(=O)C3CCOCC3)c2O[C@@H]1CN(C)S(=O)(=O)c1ccccc1	nt	0.8
Cc1ccc(S(=O)(=O)Nc2cccc3c2O[C@@H](CN(C)S(=O)(=O)c2cccs2)[C@@H](C)CN([C@@H](C)CO)C3=O)cc1	nt	2.2
Cc1nnc(NCCc2ccccc2)[nH]c1=O	0.9	-2.4
Cc1c(C)c(C)c(C(=O)c2ccccc2C(=O)NCc2cccnc2)c(C)c1C	-0.1	-6.9
COc1ccccc1NC(=O)c1cc2ccccc2c(C=Nc2ccc(NC(C)=O)cc2)c1O	nt	0.5
OCc1nc2ccccc2n1Cc1ccc(Cl)cc1	0.6	3.7
CC(C)NC(=O)Nc1ccc2c(c1)C(=O)N([C@H](C)CO)C[C@@H](C)[C@H](CN(C)C(=O)NC1CCCCC1)O2	-0.2	-2.8
O=C1CCCCC1C(=O)c1ccccc1 (stereo not given)	-0.1	0.1
C[C@@H]1CN([C@@H](C)CO)C(=O)c2cccc(NC(=O)c3ccc(-c4nccs4)cc3)c2O[C@@H]1CN(C)S(C)(=O)=O	nt	-1.4
O=C(Nc1ccccc1)OCCCc1ccccc1	-2.2	1.9
O=S(=O)(CCSc1ccccc1)c1ccccc1	-0.3	-1.8
C[C@@H]1CN([C@@H](C)CO)C(=O)c2cc(NS(=O)(=O)c3ccc(Cl)cc3)ccc2O[C@H]1CN(C)CC1CC1	-0.4	-2.2
COc1ccc(OC)c(S(=O)(=O)NCc2nn(-c3ccccc3)nc2C)c1	0.2	-2.1
COc1ccc(S(=O)(=O)N(C)C[C@@H]2Oc3ccc(NC(=O)Cn4cnnn4)cc3C(=O)N([C@@H](C)CO)C[C@@H]2C)cc1	0.4	3.3
COc1ccc(S(=O)(=O)Nc2ccc3c(c2)C(=O)N([C@H](C)CO)C[C@@H](C)[C@@H](CN(C)Cc2ccc(-c4ccccc4)cc2)O3)cc1	0.1	-1.1
COc1ccc(S(=O)(=O)Nc2cccc3c2O[C@H](CN(C)C)[C@@H](C)CN([C@H](C)CO)C3=O)cc1	nt	-5.2
Cc1ccc(S(=O)(=O)N(C)C[C@H]2Oc3ccc(NC(=O)NC4CCCCC4)cc3C(=O)N([C@@H](C)CO)C[C@H]2C)cc1	1.0	7.6
CN(C(=O)Cn1c(=O)n(CCC(=O)NCCc2ccccc2)c(=O)c2ccccc21)C1CCCCC1	nt	-8.4
O=C(c1ccccc1)c1nc2ccccc2[nH]1	nt	11.5
CC(=O)OCCn1c(=O)c2ccccc2c2ccccc2c1=O	nt	1.0
C[C@@H]1CN([C@@H](C)CO)C(=O)c2cc(NC(=O)CCC(F)(F)F)ccc2O[C@@H]1CN(C)Cc1ccc(C(F)(F)F)cc1	0.3	7.9
O=S(=O)(Nc1ccccc1Oc1ccccc1)c1ccc(-c2ccon2)s1	-0.7	-1.6
Cc1noc(C)c1NC(=O)Nc1cccc2c1O[C@@H](CN(C)C(=O)Nc1cccc3ccccc13)[C@@H](C)CN([C@@H](C)CO)C2=O	nt	-10.7
C[C@H]1CN([C@@H](C)CO)C(=O)c2cc(NC(=O)CCCN(C)C)ccc2O[C@@H]1CN(C)C(=O)NC1CCCCC1	0.5	-1.5
C[C@H]1CN([C@@H](C)CO)C(=O)c2cc(NS(=O)(=O)c3cccs3)ccc2O[C@@H]1CN(C)S(=O)(=O)c1cccs1	-0.3	2.1
COCCN1C(=O)c2ccccc2C(C(=O)NCc2ccco2)C1c1c[nH]c2ccccc12 (stereo not given)	nt	-1.4
C[C@@H]1CN([C@H](C)CO)C(=O)c2cc(NC(=O)C3CC3)ccc2O[C@@H]1CN(C)C(=O)Nc1ccc2c(c1)OCO2	-0.3	3.0

Given with values under each structure: entries from further up
Order of results: A1 inh | BJeLR viability
- Cc1ccc(S(=O)(=O)N(C)C[C@H]2Oc3ccc(NC(=O)NC4CCCCC4)cc3C(=O)N([C@@H](C)CO)C[C@H]2C)cc1
  1.0 | 7.6
- CN(C(=O)Cn1c(=O)n(CCC(=O)NCCc2ccccc2)c(=O)c2ccccc21)C1CCCCC1
  nt | -8.4
- O=C(c1ccccc1)c1nc2ccccc2[nH]1
  nt | 11.5
- CC(=O)OCCn1c(=O)c2ccccc2c2ccccc2c1=O
  nt | 1.0
- C[C@@H]1CN([C@@H](C)CO)C(=O)c2cc(NC(=O)CCC(F)(F)F)ccc2O[C@@H]1CN(C)Cc1ccc(C(F)(F)F)cc1
  0.3 | 7.9
- O=S(=O)(Nc1ccccc1Oc1ccccc1)c1ccc(-c2ccon2)s1
  -0.7 | -1.6
- Cc1noc(C)c1NC(=O)Nc1cccc2c1O[C@@H](CN(C)C(=O)Nc1cccc3ccccc13)[C@@H](C)CN([C@@H](C)CO)C2=O
  nt | -10.7
- C[C@H]1CN([C@@H](C)CO)C(=O)c2cc(NC(=O)CCCN(C)C)ccc2O[C@@H]1CN(C)C(=O)NC1CCCCC1
  0.5 | -1.5
- C[C@H]1CN([C@@H](C)CO)C(=O)c2cc(NS(=O)(=O)c3cccs3)ccc2O[C@@H]1CN(C)S(=O)(=O)c1cccs1
  -0.3 | 2.1
- COCCN1C(=O)c2ccccc2C(C(=O)NCc2ccco2)C1c1c[nH]c2ccccc12 (stereo not given)
  nt | -1.4
- C[C@@H]1CN([C@H](C)CO)C(=O)c2cc(NC(=O)C3CC3)ccc2O[C@@H]1CN(C)C(=O)Nc1ccc2c(c1)OCO2
  -0.3 | 3.0

Next part:
SMILES	A1 inh	BJeLR viability
CNC[C@H]1Oc2c(NC(=O)NC3CCCCC3)cccc2C(=O)N([C@H](C)CO)C[C@@H]1C	nt	-4.4
C[C@@H]1CN([C@@H](C)CO)C(=O)c2cc(NC(=O)CCN3CCOCC3)ccc2O[C@H]1CN(C)Cc1ccccc1	0.3	-0.8
Cc1sc2nc3c4ccccc4c(NCC4CCCO4)nn3c(=O)c2c1C (stereo not given)	-1.2	-0.4
C=CCc1c(CCC)nc(SCC2CC2)[nH]c1=O	-0.6	-1.8
O=C(CCCn1c(=O)c2cccn2c2ccccc21)NC1CCCc2ccccc21 (stereo not given)	-0.4	2.0
COc1ccc(N(C)S(=O)(=O)c2c(C)noc2C)c(OC)c1	nt	5.4
COc1ccc(Cn2c(CCC(=O)NCCC3=CCCCC3)nc3ncccc3c2=O)cc1	-0.1	4.4
N#Cc1c(Nc2ccccc2)sc2c(N)nc(N)nc12	-0.1	0.9
CC1CC(=O)N(CC(N)=O)c2ccccc2S1(=O)=O (stereo not given)	0.6	-4.9
Cc1ccc(N2C(=O)c3ccccc3C2=O)cc1	-2.7	4.7
C[C@H](CO)N1C[C@H](C)[C@H](CN(C)S(C)(=O)=O)Oc2c(NS(=O)(=O)c3ccc(F)cc3)cccc2C1=O	nt	-2.8
C[C@@H]1CN([C@@H](C)CO)C(=O)c2cccc(NC(=O)C3CC3)c2O[C@@H]1CN(C)S(=O)(=O)c1ccc(F)cc1	nt	-4.1
CCOC(=O)N1CCN(S(=O)(=O)c2cc(OC)ccc2OC)CC1	nt	0.1
Cc1cc(C)c(C#N)c(SCc2nc(COc3cccc(C(F)(F)F)c3)no2)n1	0.0	1.2
CC(C)NC(=O)N(C)C[C@@H]1Oc2c(NC(=O)C3CCCCC3)cccc2C(=O)N([C@H](C)CO)C[C@@H]1C	nt	-2.4
C(=C\c1ccccc1)/C=N/N1CCN(Cc2cccc3ccccc23)CC1	0.1	-3.4
COc1ccc(C(=O)CCN2CCC(C)CC2)cc1	nt	-11.1
CC(C)Oc1ccc(-c2nn(-c3ccccc3)cc2/C=C(\C#N)S(=O)(=O)c2ccccc2)cc1	-0.7	5.8
O=C(O)CSc1c2c(nc3cc(C(=O)Nc4cccc(C(F)(F)F)c4)ccc13)CCCC2	nt	-2.0
COc1ccc(CCNC(=O)c2ccc3c(=O)n(CC4CCCO4)c(=S)[nH]c3c2)cc1OC (stereo not given)	0.5	2.1
Clc1ccc(Nc2ncnc3c2cnn3-c2ccccc2)cc1	-1.9	9.2
CNS(=O)(=O)c1ccc2oc3ccc(S(=O)(=O)NC)cc3c2c1	0.0	0.8
C[C@H]1CN([C@@H](C)CO)C(=O)c2cccc(NC(=O)C3CC3)c2O[C@H]1CN(C)S(=O)(=O)c1ccc(F)cc1	nt	12.0
COc1cccc(NC(=O)Cn2c(C)cc(C)c(C#N)c2=O)c1	-0.2	0.9
c1ccc(N2CCN(CCCOc3ccc4c(c3)OCO4)CC2)cc1	-0.2	0.0
CC1(C)CC(=O)C2=C(C1)N(Cc1ccco1)C(=O)NC2(C(F)(F)F)C(F)(F)F	0.5	0.2
Cc1ccc(S(=O)(=O)Nc2ccc3c(c2)C(=O)N([C@@H](C)CO)C[C@H](C)[C@@H](CN(C)C)O3)cc1	-0.1	2.2
CC(C)NC(=O)Nc1cccc2c1O[C@H](CN(C)C(=O)Nc1ccccc1)[C@H](C)CN([C@@H](C)CO)C2=O	nt	-1.3
CCSc1ncnc2c1c(-c1ccccc1)cn2-c1cccc(F)c1	nt	10.2
C[C@H]1CN([C@@H](C)CO)C(=O)c2cc(NS(=O)(=O)c3ccccc3)ccc2O[C@@H]1CN(C)Cc1ccc(C(=O)O)cc1	0.4	-2.1
CCN1c2ccccc2NC1SCC(=O)Nc1ccc(Cl)cc1 (stereo not given)	nt	-5.2
C[C@H](CO)N1C[C@H](C)[C@@H](CN(C)Cc2ccccc2)Oc2ccc(NC(=O)C3CCCCC3)cc2C1=O	0.6	3.9
CC1=CC2=NC(=O)/C(=C\c3ccco3)C(=N)N2O1	nt	-7.8
Cc1ccc(C)c(Cc2c(C)nc3c(C(=O)NC4CC4)cnn3c2C)c1	-0.9	-1.4
CCn1c(=NC(=O)c2ccc(S(=O)(=O)N(C)C)cc2)sc2ccccc21	-0.3	1.2
COc1ccc(NC(=O)Nc2ccc3c(c2)C(=O)N([C@H](C)CO)C[C@@H](C)[C@@H](CN(C)Cc2ccncc2)O3)cc1	0.4	0.8
O=C(NCc1ccccc1)C1CCC(Cn2c(=S)[nH]c3ccccc3c2=O)CC1 (stereo not given)	0.5	9.4
C=CC1C(OC2OC(CO)C(O)C(O)C2O)OC=C(C(=O)OC)C1CC1CC(=O)CC(CC(=O)CCc2ccc(O)cc2)O1 (stereo not given)	-0.4	-1.7
CNC[C@@H]1Oc2c(NC(=O)C3CCCCC3)cccc2C(=O)N([C@H](C)CO)C[C@@H]1C	nt	9.9
CSc1nc2ccc3nc(NC(=O)c4ccccc4Cl)sc3c2s1	0.0	-2.6
CCOc1ccc(/C=N/n2c(C)nc3ccccc3c2=O)cc1	-0.3	-1.3
COc1ccc(NC(=O)Nc2ccc3c(c2)C(=O)N([C@H](C)CO)C[C@@H](C)[C@@H](CN(C)C(=O)Nc2ccc(F)cc2)O3)cc1	0.0	-3.9
C[C@@H]1CN([C@@H](C)CO)C(=O)c2cccc(NS(C)(=O)=O)c2O[C@H]1CN(C)S(=O)(=O)c1cccs1	nt	3.5
C[C@@H]1CN([C@@H](C)CO)C(=O)c2cc(NC(=O)Nc3ccc4c(c3)OCO4)ccc2O[C@@H]1CN(C)S(C)(=O)=O	0.1	-3.9
COc1ccc(NC(=O)N(C)C[C@H]2Oc3ccc(NC(=O)Nc4ccc(F)cc4)cc3C(=O)N([C@H](C)CO)C[C@@H]2C)cc1	0.6	2.3
C[C@H]1CN([C@@H](C)CO)C(=O)c2cc(NS(=O)(=O)c3ccccc3)ccc2O[C@H]1CN(C)CC1CCCCC1	1.2	-2.3
C[C@H]1CN([C@@H](C)CO)C(=O)c2cccc(NC(=O)C3CCOCC3)c2O[C@@H]1CN(C)Cc1ccc(C(F)(F)F)cc1	nt	2.3
COc1ccc(NC(=O)Nc2cccc3c2O[C@H](CN(C)S(=O)(=O)c2ccc(Cl)cc2)[C@@H](C)CN([C@@H](C)CO)C3=O)cc1	nt	1.8
CCCN(CCC)C(=O)c1cc2c(n(-c3ccc(Cl)c(Cl)c3)c1=O)CC(C)(C)CC2=O	-0.1	1.8
COc1cc(/C=C/CO)ccc1O[C@@H]1O[C@H](CO)[C@@H](O)[C@H](O)[C@H]1O	-0.2	-0.7
N#CC(OC1OC(COC2OCC(OC(=O)/C=C/c3ccc(OC4OC(CO)C(O)C(O)C4O)cc3)C(O)C2O)C(O)C(O)C1O)c1ccccc1 (stereo not given)	-0.1	2.1
N#CCn1c(=O)n(Cc2ccccc2)c(=O)c2cccnc21	0.3	-2.0
FC(F)(F)c1cccc(-n2c(Cn3nnc(N4CCOCC4)n3)n[nH]c2=S)c1	0.8	5.5
Cc1ccc(S(=O)(=O)N2CCN(S(=O)(=O)c3ccc(C)cc3)C2)cc1	0.0	6.6
COc1cc(C(F)(F)F)cc(C(F)(F)F)c1C(=O)N1CCC(C(=O)c2ccc(Cl)cc2)CC1	-0.3	1.8
Cc1noc(C)c1NC(=O)Nc1cccc2c1O[C@@H](CN(C)Cc1ccccc1)[C@@H](C)CN([C@H](C)CO)C2=O	nt	3.8
CC1C/C(=C/c2cccn2C)C(=O)/C(=C/c2cccn2C)C1 (stereo not given)	nt	-7.7
CC(CNC(=O)c1csc2c1CCCC2)c1ccccc1 (stereo not given)	nt	-15.4
O=C(CSc1nc2ccccc2[nH]1)n1c2ccccc2c2ccccc21	-0.1	7.1
C[C@@H]1CN([C@@H](C)CO)C(=O)c2cc(NC(=O)Nc3ccc4c(c3)OCO4)ccc2O[C@@H]1CN(C)Cc1ccc(Cl)c(Cl)c1	-0.6	-8.5
CC(=O)O[C@H]1[C@H](Oc2cc(O)cc(O)c2C(=O)c2cc(O)cc(O)c2)O[C@H](CO)[C@@H](OC(=O)c2ccccc2)[C@@H]1O	0.3	3.8
